High-throughput results from PubChem BioAssay.
VDR inhibitor = Inhibitors of the vitamin D receptor (VDR): qHTS | AID 504847, 2011 | 400,000 compounds, 0.93% hits | Vitamin D3 receptor (Homo sapiens), P11473 | Potency, µM, for the others: max response, negative = inhibition, actives largely listed as inhibitors | VDR-SRC2-3 peptide fluorescence polarization, 2 h; active = well fitted inhibition curve with a large enough effect; inconclusive = small, poorly fitted or top-dose-only effect, or another doubt; inactive = no such curve, though single readings can be large or run the other way; also: series mostly up to about 120 µM
Target sequence (P11473 whole entry, looked up): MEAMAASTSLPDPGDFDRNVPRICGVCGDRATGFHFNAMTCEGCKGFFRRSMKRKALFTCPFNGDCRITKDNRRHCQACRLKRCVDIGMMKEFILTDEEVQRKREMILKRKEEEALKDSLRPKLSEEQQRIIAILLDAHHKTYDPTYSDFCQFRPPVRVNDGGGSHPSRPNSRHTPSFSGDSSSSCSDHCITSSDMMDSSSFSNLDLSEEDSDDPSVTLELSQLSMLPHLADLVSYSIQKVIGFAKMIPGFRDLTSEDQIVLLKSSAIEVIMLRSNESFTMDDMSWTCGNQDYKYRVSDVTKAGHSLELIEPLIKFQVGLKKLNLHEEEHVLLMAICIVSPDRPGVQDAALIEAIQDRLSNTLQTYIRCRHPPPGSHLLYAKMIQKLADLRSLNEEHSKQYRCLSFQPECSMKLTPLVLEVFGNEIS
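Reagent solutions, kept cold and dark, are dispensed first; compounds are then pinned in at 23 nl, plates briefly spun, and incubated 2 h at ambient temperature. Inhibition of VDR–SRC2-3 peptide binding is read by fluorescence polarization.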
* marks the source's active call; other numbers are inactive results; ? = inconclusive; & = joins results of further samples. % is scaled to controls: 0 for no effect and ±100 for the full control effect; potency is read from the fitted curve at half-maximal effect. Some of the compounds tested; the hit share may differ from the screen's.

VDR inhibitor | Molecule
0.7% | Cc1ccccc1CSc1cn(CCNC(=O)c2cccs2)c2ccccc12
2.7% | Cc1cccc(C2=N[C@@H](CC(C)C)CO2)c1
2.9% | Nc1cc2cccnc2cc1Cl
-17.0% | CCCN1CCN(S(=O)(=O)c2ccc3c(c2)CC(C)N3C(=O)C2CC2)CC1 (centres undefined)
-3.3% | Cc1cccc(C)c1OCC(O)Cn1nnc2ccccc21 (centres undefined)
-11.8% | O=C(OCc1ccccc1)N1CCC2CC1c1cc(-c3ccccc3)ccc12 (centres undefined)
22.0%&-9.6%&0.4% | O=C1OCCN1/N=C/c1ccc([N+](=O)[O-])o1
-7.9% | COC(=O)[C@H](C)NC(=O)/C=C/c1ccc(OC)cc1
2.1% | O=S(=O)(Nc1nc2ccccc2nc1N1CCN(c2ccccc2)CC1)c1ccc(F)cc1
-8.3% | COc1ccc(C(CNC(=O)c2ccc(NS(=O)(=O)c3ccc4c(c3)OCCO4)cc2)N(C)C)cc1 (centres undefined)
-5.5% | CC(C)CNC(=O)c1cc(S(=O)(=O)N2CCOCC2)ccc1N1CCCC1
-4.7% | CCCCCCCn1ccc(O)c(CC(=O)OC)c1=O
-5.6% | Cc1ccccc1SCc1noc(C(=O)NCC2CCCO2)c1C(=O)O (centres undefined)
-4.1% | CCC(C(=O)NCc1cccnc1)n1nc(C)n2c(cc3occc32)c1=O (centres undefined)
-14.6% | O=C(Nc1ccc(Cl)cc1)Nc1cccc2nsnc12
10.7% | Cc1n[nH]c(=O)nc1N1CCc2ccccc2C1
-9.5% | Cc1ccccc1NC(=O)Cc1nc(COC(=O)CC(C)c2ccccc2)cs1 (centres undefined)
8.6% | O=C(Cn1c(=O)oc2ccccc21)Nc1ccc(F)cc1
? | CN(C)CC(=O)c1ccc(-c2ccccc2)cc1
-8.9% | N#Cc1ccc(C(=O)N/N=C/c2cn(CC(=O)O)c3ccccc23)c(F)c1
? | COc1ccccc1S(=O)Cc1ccc(C(=O)NCc2ccccc2Cl)o1 (centres undefined)
-2.0% | COc1ccc(N(CC(=O)Nc2c(C)cccc2C)S(=O)(=O)c2ccccc2[N+](=O)[O-])c(OC)c1
-6.0% | Cc1ccc(N2C(=O)CCSC23C(=O)N(Cc2ccccc2)c2ccccc23)cc1F (centres undefined)
1.1% | COc1ccc(-n2nc(C(=O)NCC(=O)N3CCN(c4ccccc4F)CC3)c3ccccc3c2=O)cc1OC
-0.2% | CS(=O)(=O)Nc1ccc(C2=NN(S(C)(=O)=O)C(c3cccs3)C2)cc1 (centres undefined)

Compounds from the list above that contain a nitro group on carbon (2):
VDR inhibitor | Molecule
22.0%&-9.6%&0.4% | O=C1OCCN1/N=C/c1ccc([N+](=O)[O-])o1
-2.0% | COc1ccc(N(CC(=O)Nc2c(C)cccc2C)S(=O)(=O)c2ccccc2[N+](=O)[O-])c(OC)c1

Retrieved by structure from the entries so far, 5 records:
VDR inhibitor | Molecule
2.7% | Cc1cccc(C2=N[C@@H](CC(C)C)CO2)c1
-9.5% | Cc1ccccc1NC(=O)Cc1nc(COC(=O)CC(C)c2ccccc2)cs1 (centres undefined)
-5.5% | CC(C)CNC(=O)c1cc(S(=O)(=O)N2CCOCC2)ccc1N1CCCC1
-6.0% | Cc1ccc(N2C(=O)CCSC23C(=O)N(Cc2ccccc2)c2ccccc23)cc1F (centres undefined)
-0.2% | CS(=O)(=O)Nc1ccc(C2=NN(S(C)(=O)=O)C(c3cccs3)C2)cc1 (centres undefined)

(cont.)
VDR inhibitor | Molecule
5.3% | O=C(c1cccs1)N(Cc1cc2ccccc2[nH]c1=O)c1ccccc1
6.7% | CCOc1ccc(NC(=S)NNC(=O)c2ccc(Br)cc2)cc1
-1.0% | CCOCCCNC(=O)C1CCN(Cc2cccc(OCc3ccccc3)c2)CC1
-0.5% | CC(Cc1ccco1)NC(=O)c1cccc(S(=O)(=O)N(C)C)c1 (centres undefined)
-8.0% | c1cc2nnnn2nc1N1CCCCCC1
5.3% | O=C(CSC1=NCCS1)NC(NC(=O)CSC1=NCCS1)c1ccccc1
-17.1% | COc1cc(OC)cc(C(=O)NC2CCCCCCC2)c1
79.4µM* | O=C(/C=C/c1ccc2c(c1)OCO2)c1ccccn1
-5.3% | CCn1c(=O)c(C(=O)Nc2nc3ccccc3[nH]2)c(O)c2ccccc21
-2.9% | COc1ccc(NS(=O)(=O)c2cccc(C(=O)NNC(=O)CN3C(=O)NC(C)(C)C3=O)c2)cc1
-14.9% | CC(C)(C)c1ccc(Cn2c(Cc3ccccc3)nc3ccccc32)cc1
-6.3% | CCN(CC(=O)Nc1cc(Cl)ccc1C)C(=O)CN1C(=O)NC(CC)(c2ccccc2)C1=O (centres undefined)
13.0% | CN(C)C(=O)NC1c2ccccc2-c2ccccc21
9.8% | COc1ccc(-c2cc(C(=O)N/N=C/c3cccnc3)c3cc(C)cc(C)c3n2)cc1
-2.1% | O=C1NCCNC1c1ccccc1 (centres undefined)
2.2% | CC(=O)Nc1ccc(C(=O)NCCCSc2ccccc2)cc1
-14.2% | COc1ccc(S(=O)(=O)NCC(=O)NCCc2ccc(OC)c(OC)c2)cc1
-1.2% | CC1CCCCN1C(=O)COc1ccc(NC(=O)c2ccco2)cc1 (centres undefined)
? | CCCCOc1ccc(-c2nc(=S)[nH][nH]2)cc1
? | O=C(CSCC(=O)Nc1cccc([N+](=O)[O-])c1)Nc1ccccc1
3.5% | COc1ccc(NC(=O)COC(=O)c2ccc3ccccc3n2)cc1OC
11.9% | CC12CCC(=O)N1C(C(=O)OCC(=O)Nc1cccc(Br)c1)CS2 (centres undefined)
3.3% | COCCN(C(=O)c1cc(Cl)ccn1)c1c(N)n(Cc2ccccc2)c(=O)[nH]c1=O
24.4% | CS(=O)(=O)Nc1cccc(-c2nc(Nc3ccncc3)c3ccccc3n2)c1
10.2% | Cc1cc(=O)c2n(Cc3ccccc3Cl)nc[n+]2[nH]1
-26.8% | O=[N+]([O-])c1cc(N=Nc2ccc3ccccc3c2)ccc1O
0.1% | CC(=O)N1c2ccccc2C(C)CC12CCCCC2 (centres undefined)
-4.1% | Cc1ccc(C)c(OCC(=O)Nc2ccc(N3CCOCC3)cc2N2CCOCC2)c1
-14.5% | COc1ccc(C(=O)NC(=S)Nc2cc(C)ccn2)cc1[N+](=O)[O-]
-3.4% | CN(CC(=O)Nc1ccccc1Cl)C(=O)COC(=O)c1cc(S(=O)(=O)N(C)C)ccc1N1CCCC1
-1.8% | CC(=O)/C(=N\Nc1ccc(C)cc1)Sc1nncn1C
1.3% | Cc1cnc(NC(=O)c2cccc(S(=O)(=O)N3CC(C)OC(C)C3)c2)s1 (centres undefined)
7.8% | CCOc1ccc(-n2c(=O)c3c4c(sc3n(CC(=O)NC(C)CC)c2=O)CCC4)cc1 (centres undefined)
-10.5% | COC(=O)C1=C(C)NC(=O)/C1=C\N(C)C
-4.5% | Cc1ccc(CN(CC(=O)NCC2CCCO2)S(=O)(=O)c2ccc(C)cc2)cc1 (centres undefined)
-7.2% | COc1ccc(S(=O)(=O)NCc2cccnc2)cc1C(=O)N1CCCCC1
4.5% | COC(=O)c1scc(C)c1NC(=O)CC1NCCNC1=O (centres undefined)
0.2% | COc1ccc(C(=O)N2CCN(C(=O)c3ccco3)CC2)cc1OC
14.0% | CCCOCCc1nnc(N)s1
-15.3% | COc1ccc(C(=O)NCc2ccccn2)cc1[N+](=O)[O-]
1.1% | CCCn1c(SCC(=O)c2cc(C)n(-c3cc(C)on3)c2C)n[nH]c1=O
3.3% | Cc1ccc(NC2CCCN(C(=O)c3snnc3C)C2)cc1C (centres undefined)
-8.5% | Cc1onc(-c2c(F)cccc2Cl)c1C(=O)NCCN1CCNC1=O
-0.3% | COc1ccc(OCC(=O)N2CCN(C(=O)c3cccc4ccccc34)CC2)cc1
1.2% | O=C(O[C@H]1[C@H](Cc2ccccc2)NS(=O)(=O)[C@H]2C[C@@H]3C=C[C@]12O3)c1ccc([N+](=O)[O-])cc1
7.3% | CCn1cc(C(=O)NCCc2ccccc2C)c(=O)c2ccc(C)nc21
3.1% | O=C1CC(N(CCc2ccccc2)C(=S)Nc2cc(Cl)ccc2Cl)C(=O)N1c1c(Cl)cccc1Cl (centres undefined)
44.7µM* | C=CCOC(=O)NC(c1ccc(F)c(F)c1)C(C(=O)CCl)C(=O)OC (centres undefined)
12.3% | O=C(Nc1ccc(CN2CCCCC2)cc1)c1sc2ccccc2c1Cl
18.8% | O=C(NCCCn1ccnc1)c1ccc(NS(=O)(=O)c2ccc(Cl)c(Cl)c2)cc1

(listing goes on)
VDR inhibitor | Molecule
-12.4% | O=C(CSc1ncc(S(=O)(=O)c2ccc(Br)cc2)c(=O)[nH]1)NCc1ccc(Cl)cc1
-9.6% | Cc1cc(C)n2nc(-c3ccccc3)cc2n1
10.1% | Cc1cc(=O)[nH]c2ccc(Cc3ccccc3)cc12
2.8% | O=c1c2ccccc2nnn1CSc1nnc(-c2ccc3c(c2)OCO3)o1
-3.1% | Cc1ccc(S(=O)(=O)N2CCCc3cc(NC(=O)c4ccc(C(F)(F)F)cc4)ccc32)cc1
25.3% | Nc1c(C(=O)N/N=C/c2ccc(F)cc2)oc2nc(-c3ccccc3)cc(-c3ccco3)c12
-10.5% | O=c1[nH]c(=S)c2c(n1-c1ccccc1)CCC2
-13.3% | CCN(CC)CCCNC(=O)/C(=C\c1cccn1C)NC(=O)c1cccs1
-6.2% | CCn1c(SCC(=O)N2c3ccccc3CCc3ccccc32)nc2c1c(=O)n(C)c(=O)n2C
7.3% | CCOC(=O)C1CCN(C/C=C/c2ccccc2)CC1
8.0% | O=C(CSC(=S)N1CCCCC1)c1ccccc1
3.1% | CC(C)NCC(O)COc1ccc(Br)cc1 (centres undefined)
-4.1% | O=C(Nc1ccccc1N1CCN(C(=O)c2ccccc2)CC1)c1ccccc1Cl
12.7% | CC(Oc1ccc(F)cc1)C(=O)Nc1cc(S(=O)(=O)N2CCOCC2)ccc1N1CCN(C)CC1 (centres undefined)
-18.1% | Cc1cc(C)n(CCNC(=O)c2cc(COc3ccc(F)cc3Cl)on2)n1
-2.4% | Cc1cccc(C(=O)Nc2sc3c(c2C(=O)O)CCC3)c1
-23.5% | O=C(CSc1n[nH]c(=O)n1-c1ccccc1)N1CCOCC1
-5.5% | CCOP(=O)(c1ccc(N(C)C)cc1)C(O)c1cc(OC)c(OC)c(OC)c1 (centres undefined)
-22.2% | COc1cccc(-c2nc(S(=O)(=O)c3ccc(C)cc3)c(N3CCCCCC3)o2)c1
10.8% | CCOc1cccc(C(=O)Nc2cccc(-c3nc4ncccc4o3)c2C)c1
-18.6% | CC(C)OC(=O)Nc1ccc2c(c1)N(C(=O)CCN(C)C)c1ccccc1CC2
-27.4% | CC(C(=O)NC1=NCCS1)N1C(=O)C2CC=CCC2C1=O (centres undefined)
-6.2% | Cc1cc(-c2n[nH]c(=S)n2/N=C/c2cccs2)n[nH]1
-16.6% | Cc1nccn1CC(O)COc1ccccc1 (centres undefined)
? | CC(C)N1C(=O)S/C(=C\c2ccc(-c3ccc(Cl)c(C(=O)O)c3)o2)C1=O
-0.4% | COCCCn1c(=NC(=O)c2ccncc2)c(C#N)cc2c(=O)n3cccc(C)c3nc21
-9.0% | CC(=O)c1cccc(NC2c3ccccc3C(=O)N2Cc2ccc3c(c2)OCO3)c1 (centres undefined)
-4.3% | CCc1onc(C)c1C(=O)O
-3.4% | CC(=O)N1CCN(c2ccc(NCc3ccc(C(C)C)cc3)cc2)CC1
5.8% | O=C(CNC(=O)c1cccc(OC(F)F)c1)OCn1nnc2ccccc2c1=O
? | COc1ccc(OC)c(NC(=O)c2c(NC(=O)CCC(=O)O)sc3c2CCCCC3)c1
0.5% | COc1ccc(CCNC(=O)CCc2c(C)nc3cc(-c4ccccc4OC)nn3c2C)c(OC)c1
-23.7% | COCCCNCC1C(Oc2ccc(Cl)cc2)C(=O)N1c1ccccc1C (centres undefined)
1.6% | Nc1ccc(S(=O)(=O)Nc2nccc(/C=C/c3ccc(Cl)cc3)n2)cc1
-8.1% | COc1cc2c(cc1OC)-c1nnc(C)n1C1(CCCC1)C2
28.3% | Cc1ccc(N(C)S(=O)(=O)c2cccc(C(=O)OCC(=O)c3c(N)n(C)c(=O)n(C)c3=O)c2)cc1
11.6% | O=C(NCCc1ccccc1)c1ccc2nccnc2c1
-12.8% | Cc1cnc(NCCc2ccccc2)s1
3.3% | COc1ccc(Cc2nc3ccc(C(=O)NC(C)c4cn(C)nc4C)cc3o2)cc1 (centres undefined)
-18.7% | O=C(N/N=C/c1ccc2c(c1)OCO2)c1ccc(COCC(F)(F)C(F)F)cc1
-13.6% | Cc1cc(C)cc(NC(=O)COC(=O)CNC(=O)C2CCCCC2)c1
-2.9% | COc1ccc(C(C)(C)C)cc1NC(=O)CN1C(=O)C(=O)N(Cc2ccco2)C1=O
9.8% | CCn1cc(S(=O)(=O)Nc2cc(C(=O)OC)ccc2C)cn1
-6.0% | CC(C)(c1cc(Cl)c(O)c(CN2CCOCC2)c1)c1cc(Cl)c(O)c(CN2CCOCC2)c1
7.2% | CCCn1c2ccccc2c2cnn(CC(=O)Nc3ccccc3OC)c(=O)c21
-13.9% | Cc1ccc(-c2cn3cc(C)ccc3n2)cc1
-6.9% | COc1ccc(OC)c(CN(CCN2CCOCC2)C(=O)Nc2ccccc2)c1

Records above that bear a hit mark in VDR inhibitor.
VDR inhibitor | Molecule
79.4µM* | O=C(/C=C/c1ccc2c(c1)OCO2)c1ccccn1
44.7µM* | C=CCOC(=O)NC(c1ccc(F)c(F)c1)C(C(=O)CCl)C(=O)OC (centres undefined)

Structural class, the entries above containing a tert-butyl group
VDR inhibitor | Molecule
-14.9% | CC(C)(C)c1ccc(Cn2c(Cc3ccccc3)nc3ccccc32)cc1
-2.9% | COc1ccc(C(C)(C)C)cc1NC(=O)CN1C(=O)C(=O)N(Cc2ccco2)C1=O
